From PubChem
RE007 growth inh: less growth of the S. pombe RE007 Vpr strain; S. pombe RE007 Vpr strain, BacTiter-Glo ATP luminescence, 24 h; control for the full effect not named in the record; Potency, µM (titrated, usually from 92.2 µM), for inactives: top-dose activity change, negative = less growth; 360,000 compounds, 0.21% hits; active = well fitted falling curve with a large enough effect; inconclusive = small, poorly fitted or top-dose-only effect; inactive = no such curve, though single readings can be large or run the other way;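 also: % is scaled to controls: 0 for no effect and ±100 for the full control effect; nearly all actives have a fitted effect of over 50% in size; the assay follows cell death caused by Vpr and the record does not say whether a fall means rescue or toxicity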
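Fission yeast RE007 carrying one integrated HIV-1 vpr copy, seeded at OD 0.01 in PMG+AL medium with 23 nL pinned compound. Grown 24 h at 30 degrees; viability read by BacTiter-Glo luminescence after 5 min.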
SARS PLpro yeast: blocks SARS-CoV papain-like protease in a yeast assay; S. cerevisiae expressing SARS-CoV PLpro, growth rescue; control for the full effect not named in the record; Potency, µM (series often up to 32.9 µM), inactives show at the highest dose activity, positive = growth rescue; 330,000 compounds, 0.19% hits; AID 485353; active means well fitted rising curve with a large enough effect; inconclusive means small, poorly fitted or top-dose-only effect; inactive means no such curve, though single readings can be large or run the other way; also: 0% is about no effect; nearly all actives have a fitted effect of over 55% in size; growth read by luminescence after 48 h
NS1 function inh: influenza NS1 inhibition | 270,000 compounds, 0.4% hits | Potency, µM (titrated, usually from 46.1 µM), for inactives: at the highest dose activity, positive = more growth | S. cerevisiae slowed by influenza A NS1, growth recovery by OD600; active means well fitted rising curve with a large enough effect; inconclusive means small, poorly fitted or top-dose-only effect; inactive means no such curve, though single readings can be large or run the other way; also: nearly all actives have a fitted effect of over 50% in size
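Recovery from NS1-induced slow growth read by OD600 in budding yeast switched to galactose assay medium (pH 6.0, -URA) at 1:100 dilution. Compound 23 nl per well; the matching strain lacking NS1 serves as control.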
Cruzain noTriton: cruzain (T. cruzi) inhibition without detergent; 200,000 compounds, 2.3% hits; purified cruzain, Z-FR-AMC fluorescence, no detergent; AID 1476; P25779; Potency, µM, for the others: max response, negative = inhibition, usual class: inhibitors;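 also: plate controls were enzyme without inhibitor for no effect and buffer without enzyme for full effect; nearly all actives have a fitted effect of over 40% in size; top concentration of the series not given in the record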
Target sequence (P25779 123-467 limits assumed): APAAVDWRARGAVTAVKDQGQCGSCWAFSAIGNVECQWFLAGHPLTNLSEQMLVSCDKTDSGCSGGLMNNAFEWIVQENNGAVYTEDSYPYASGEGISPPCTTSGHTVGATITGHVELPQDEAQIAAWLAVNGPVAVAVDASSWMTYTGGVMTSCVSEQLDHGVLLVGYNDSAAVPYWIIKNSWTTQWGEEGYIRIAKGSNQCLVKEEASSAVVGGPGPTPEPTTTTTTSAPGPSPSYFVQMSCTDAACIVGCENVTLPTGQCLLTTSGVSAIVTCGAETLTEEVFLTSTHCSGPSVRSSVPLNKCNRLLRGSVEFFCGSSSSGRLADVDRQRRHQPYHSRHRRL
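Detergent-free condition (0.00005% Triton X-100) in acetate buffer pH 5.5 with DTT. 1.5 nM enzyme and compound were pre-mixed 15 min, then 2 uM Z-FR-AMC substrate added; reaction progress from fluorescence change between first and third reads (60 s).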
Cruzain Triton: cruzain (T. cruzi) inhibition with detergent. P25779. purified cruzain, Z-FR-AMC fluorescence, 0.01% Triton. Potency, µM, without a hit: max response, negative = inhibition, most hits filed as inhibitors. 200,000 compounds, 0.43% hits. AID 1478;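 also: plate controls were neutral wells for no effect and buffer without enzyme for full effect; nearly all actives have a fitted effect of over 40% in size; top concentration of the series not given in the record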
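Detergent-containing arm of a paired screen for aggregation-based inhibition: 0.01% Triton X-100 present. Cruzain at 1.5 nM cleaved 2 uM Z-FR-AMC at pH 5.5 with 5 mM DTT; AMC fluorescence gain over 60 s measured activity.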
Marburg entry inh: inhibitors of Marburg virus binding or cell entry; Potency, µM (titrated, usually from 37.8 µM), without a hit: at the top dose activity change, negative = inhibition, actives largely listed as inhibitors; Marburg virus pseudotyped entry inhibition, cell reporter; control for the full effect not named in the record; about a third of the inactives were read at about 46 µM; 300,000 compounds, 1.8% hits; AID 540276; active = well fitted inhibition curve with a large enough effect; inconclusive = small, poorly fitted or top-dose-only effect, or effect the other way; inactive = flat fitted curve, though single readings scatter; tested in HEK293 cells; about a fifth of its hits are not listed in these tables; also: % is scaled to controls: 0 for no effect and ±100 for the full control effect; luciferase read-out
LASV entry inh: Lassa virus entry inhibition; Lassa virus pseudotype entry inhibition, cell reporter; control for the full effect not named in the record; Potency, µM (top dose mostly 37.9 µM), without a hit: top-dose activity change, negative = inhibition, actives largely listed as inhibitors; 300,000 compounds, 1.2% hits; AID 540256; active means well fitted inhibition curve with a large enough effect; inconclusive means small, poorly fitted or top-dose-only effect, or effect the other way; inactive means flat fitted curve, though single readings scatter; tested in HEK293 cells; also: % is scaled to controls: 0 for no effect and ±100 for the full control effect; nearly all actives have a fitted effect of over 50% in size; luciferase read-out
2A StopGo: lowers the luciferase signal of an FMDV 2A StopGo reporter | AID 1159524 | 410,000 compounds, 1.2% hits | Potency, µM (doses to about 57.9 µM), inactives show at the top dose signal change, negative = less light | human cells with a luciferase reporter of 2A StopGo recoding; control for the full effect not named in the record; active = well fitted falling curve with a large enough effect; inconclusive = small, poorly fitted or top-dose-only effect; inactive = no such curve, though single readings can be large or run the other way; tested in HEK293T cells; also: % is scaled to controls: 0 for no effect and ±100 for the full control effect; nearly all actives have a fitted effect of over 45% in size; luciferase light after 4 h
The depositor's hits bear a star; ? = inconclusive; / = not tested or not shown; & = joins results of further samples; [ ] = dose if it differs, or a comment. Unless noted, calls follow the shape of the dose curve; as a rule, active = well fitted curve in the direction sought with a large enough effect; inconclusive = small, poorly fitted or top-dose-only effect, or another doubt; inactive = no such curve, though single readings can be large; an effect the other way counts as inactive or inconclusive. Potency is read from the fitted curve at half-maximal effect.

SMILES	RE007 growth inh	SARS PLpro yeast	NS1 function inh	Cruzain noTriton	Cruzain Triton	Marburg entry inh	LASV entry inh	2A StopGo
Cc1ccc(CCNC(=O)C2CC(c3ccccc3[N+](=O)[O-])=NO2)cc1 (configuration not stated)	-6%	6%	-4%	-5%	5.1%	/	/	1%
Cn1cc(CNCc2ccc(-n3cccn3)cc2)c(-c2ccccc2F)n1	-8%	0%	0%	/	/	?	-18%	?
COc1ccc(C(=O)O)cc1S(=O)(=O)N(C)CCc1ccccn1	-4%	0%	2%	/	/	2%[46.1 µM]	26%	-11%
O=C(Cn1cnc2ccccc21)N/N=C/c1cccc([N+](=O)[O-])c1	0%	0%	-1%	/	/	5%[46.1 µM]	?	-14%
C/C(=N/NC(=O)c1ccc(Br)s1)c1cccnc1	5%	-1%	-8%	/	/	/	/	26%
COC(=O)c1cc(OC)c(OC)c(OC)c1N	11%	2%	-1%	-6%	-3.8%	4%	13%	-4%
O=C(Nc1ccccc1)Oc1ccccc1N1CCOCC1	-5%	1%	8%	/	/	39%[46.1 µM]	19%	7%
CCC(C)NC(=O)c1nn(Cc2ccccc2)c(=O)c2ccccc12 (configuration not stated)	0%	-6%	-8%	/	/	-2%[46.1 µM]	2%	7%
COCC(C)NC(=O)c1noc2c1CCc1cc(OC)ccc1-2 (configuration not stated)	2%	-10%	-35%	-1%	-9.3%	?	-9%	25%
COc1ccc(CNC(=O)c2sc3nc4c(c(C(F)(F)F)c3c2N)CCC4)cc1	/	-11%	21%	-6%	-13%	6%	9%	/
Cc1nnc(SCc2cccc3ccccc23)s1	14%	-1%	-36%	/	/	?	?	55%[activator]
COc1cc(OC)cc(C(=O)NCC(=O)OCc2cc(=O)oc3cc(OC)ccc23)c1	11%	0%	-1%	/	/	/	/	-14%
COc1ccc(NC(=O)CN2C(=O)NC3(CCCCC3C)C2=O)cc1S(=O)(=O)N1CCOCC1 (configuration not stated)	1%	-12%	/	/	/	15%[46.1 µM]	-8%[46.1 µM]	-14%
CCOC(=O)c1c(NC(=O)c2ccc(S(=O)(=O)N(CC(C)C)CC(C)C)cc2)sc2c1CCN(C(=O)OCC)C2	/	/	/	-9%	-0.2%	/	17%[46.1 µM]	-3%
Cc1cc(C)c2c(N)c(C(=O)N3CCCCCC3)sc2n1	-17%	-12%	-6%	-10%	-0.4%	3%	4%	13%

Some of the entries above, set out differently:
Fields: RE007 growth inh	SARS PLpro yeast	NS1 function inh	Cruzain noTriton	Cruzain Triton	Marburg entry inh	LASV entry inh	2A StopGo
Cn1cc(CNCc2ccc(-n3cccn3)cc2)c(-c2ccccc2F)n1
  -8%	0%	0%	/	/	?	-18%	?
COc1ccc(C(=O)O)cc1S(=O)(=O)N(C)CCc1ccccn1
  -4%	0%	2%	/	/	2%[46.1 µM]	26%	-11%

(listing goes on)
SMILES	RE007 growth inh	SARS PLpro yeast	NS1 function inh	Cruzain noTriton	Cruzain Triton	Marburg entry inh	LASV entry inh	2A StopGo
COc1ccc(N/C=C/C(=O)c2ccc(C)cc2)c([N+](=O)[O-])c1	20%	/	/	/	/	?	?	34%[activator]
COc1ccc(-c2noc(N3CCC(C(=O)N(C)c4cc(Cl)ccc4OC)CC3)n2)cc1	/	/	/	-5%	-0.7%	/	-16%[46.1 µM]	?
COc1ccc(N2CCN(C(=O)COc3ccc4c(C)cc(=O)oc4c3C)CC2)cc1	-8%	-2%	8%	/	/	9%[46.1 µM]	16%[46.1 µM]	-5%
Cn1c(SCC(=O)N2CCCC2)nnc1-c1cnccn1	6%	1%	6%	/	/	/	/	7%
Cc1cc2cc(CNC(=O)c3ccc(S(=O)(=O)N4CCOCC4)cc3)ccc2n1C	4%	13%	11µM*	-14%	-5.3%	0%	/	-22%
COc1ccc(C(CNC(=O)c2ccc(-n3cnnn3)cc2)N2CCOCC2)cc1 (configuration not stated)	10%	-7%	?	-10%	1.1%	23%	15%	-25%
Cc1cc(/C=C(/C#N)c2nc3ccccc3[nH]2)c(C)n1-c1cccc([N+](=O)[O-])c1	-5%	-10%	-10%	?	-1.3%	?	10µM*	0%
NC(=O)CSc1nnc(-c2ccc([N+](=O)[O-])cc2)o1	-20%	1%	5%	/	/	5%[46.1 µM]	7%	58%[activator]
Cc1ccc(C)c(N2CCN(C(=O)Cc3cn(C)c4ccccc34)CC2)c1	-11%	-8%	2%	7%	-8.5%	18µM*	21µM*	?
COC(=O)C1=C(C)N(c2cccc(OC)c2)C(=O)/C1=C\c1ccco1	-1%	17%	-6%	9%	-6.9%	-27%	-17%	-27%
COc1ccc2c(c1OC)C(=O)N(c1ccc(F)cc1)C2	-6%	-1%	-6%	/	/	?	-20%[46.1 µM]	6%
Cc1cccc(Nc2c(F)c(F)c(F)c(F)c2C(=O)O)c1	-2%	-6%	/	/	/	-4%[46.1 µM]	24%[46.1 µM]	-28%
N#CCc1nc2ccc(S(=O)(=O)N3CCOCC3)cc2s1	4%	1%	16%	/	/	-1%	?	-6%
CCOCC(=O)Nc1nc2ccc(C)cc2s1	?	?	-2%	4%	-4.0%	-18%	11µM*	-40%
CC(C)c1cc(C(=O)N/N=C/C=C/c2ccccc2)n[nH]1	-5%	-6%	-2%	2%	-9.3%	22%	-2%	-24%
COc1ccc(NC(=O)c2oc3ccccc3c2NC(=O)Cc2cccs2)cc1	/	/	/	-5%	-3.3%	3%[46.1 µM]	5%[46.1 µM]	8%
C=CCn1c(NC(=O)c2ccccc2Cl)c(C#N)c2nc3ccccc3nc21	-6%	-5%	-39%	?	-21%	-2%&-2%	-25%	?
O=C1c2ccccc2C(=O)C1c1ccc(Cl)cc1	-9%	8%	-36%	/	/	23%&23%	2%	9%
COc1cc(OC)c(OC)cc1CN1CCc2nc(N3CCN(C)CC3)ncc2C1	/	/	/	-4%	-0.5%	/	-8%[46.1 µM]	-18%
Cc1ccc(C)c(NC(=O)/C(C#N)=C/c2ccc[nH]2)c1	-11%	-3%	-14%	/	/	11%[46.1 µM]	?	6%
Cn1nnnc1SCC(=O)Nc1nc(-c2ccccc2)c(-c2ccccc2)o1	20%	10%	-31%	1%	-5.9%	-1%	-5%	?
CCc1nnc(N/N=C\c2ccc(OC(C)=O)c(OC)c2)n1N	-13%	-4%	-5%	/	/	/	/	0%
CCCn1c2ccccc2c2nnc(SCCN3CCOCC3)nc21	5%	4%	0%	/	/	?	?	-20%
CCOC(=O)c1c(C)n(-c2ccccc2)c2ccc(O)c(CN(C)C)c12	-8%	-3%	/	/	/	?	?	?
CC(C)CNC(=O)C(=O)NCC1OCCCN1S(=O)(=O)c1cccs1 (configuration not stated)	16%	2%	6%	/	/	/	/	-13%
COc1ccc(-c2oc3cc(OC)c(O)c(OC)c3c(=O)c2OC)cc1O	-18%	0%	-2%	/	/	/	/	-29%
Cc1ccc(-n2nc(CO)c(C(=O)NCCCc3ccccc3)n2)cc1	/	/	/	4%	-6.0%	1%[46.1 µM]	-29%[46.1 µM]	-7%
N#CC(C#N)=C1C=C2C=C(N3CCCCC3)CCC2CC1 (configuration not stated)	-8%	-8%	2%	-8%	-22%	2%	21%	-6%
Cc1ccc(OC(C)C(=O)N2CCN(CCc3ccncc3)CC2)cc1C (configuration not stated)	/	/	/	6%	0.8%	4%[46.1 µM]	-9%[46.1 µM]	8%
Cc1c(CCNC=O)cc(C)c2c3c(oc12)CCCC3	31%	/	/	/	/	?	24%	38%[activator]
CCC(C)NC(C(=O)Nc1ccc(Cl)c([N+](=O)[O-])c1)c1ccccc1 (configuration not stated)	-17%	20%	-5%	-6%	-1.2%	?	-29%	?
COc1cccc(OC)c1NC(=O)CN(C)S(=O)(=O)c1ccc2c(c1)OCCO2	9%	0%	-10%	/	/	-1%[46.1 µM]	4%	11%
Cc1ncc(CN2CCN(C3CCCC3)C(CCO)C2)s1 (configuration not stated)	-2%	0%	2%	/	/	?	9%[46.1 µM]	17%
Cc1cc(C)nc(/N=C(\N)Nc2ccc(F)c([N+](=O)[O-])c2)n1	-1%	10%	-8%	-5%	-0.5%	-22%	-1%	-10%
Cc1cccc(C)c1NC(=O)CN(C)C(=O)c1cccc(NS(=O)(=O)c2ccccc2)c1	16%	1%	/	/	/	?	?	-4%
COc1cccc(C(=O)N2CCN(CCc3ccncc3)CC2)c1	/	/	/	4%	-0.8%	19%[46.1 µM]	-5%[46.1 µM]	-7%
CCN(CC)CCNC(=O)c1cc(Nc2ccc(OC)c(OC)c2)nc2ccccc12	-18%	-1%	4%	/	/	?	-14%[46.1 µM]	-5%
CCOC(=O)COc1nc(N(C)C)nc(N(C)C)n1	2%	10%	0%	4%	12%	-9%	15%	-11%
COc1ccc(NC(=O)[C@H](C)NC(=O)C2CCN(S(=O)(=O)c3ccc(C)cc3)CC2)cc1OC	-5%	12%	-12%	/	/	-10%[46.1 µM]	12%[46.1 µM]	-5%
Cc1cc(C)c(NC2=CC(=O)CC(C)(C)C2)c(C#N)c1	83%	5%	-7%	-3%	0.5%	-1%	-17%	-24%
CC(=O)N1CCc2c(sc3c2c(=O)n(Cc2ccccc2)c(=O)n3Cc2cccc(Cl)c2)C1	/	/	/	?	-4.9%	?	/	?
COc1ccc(NC(=O)CNC(=O)c2cccs2)cc1Cl	-8%	-1%	1%	/	/	/	/	23%
CCCSc1nc(=O)n2cc(C)ccc2n1	6%	-2%	4%	-1%	-1.3%	16%	?	55%[activator]
CCOc1ccc(NS(=O)(=O)c2ccc(-c3cc(C)no3)s2)cc1	/	/	/	-17%	-8.8%	/	?	-19%
NC(=O)c1ccc(SCC(=O)NC2CCCCC2)c([N+](=O)[O-])c1	11%	5%	/	/	/	14%[46.1 µM]	-2%[46.1 µM]	9%
COc1ccc(CNC(=O)Cc2c(C(=O)O)[nH]c3ccccc23)cc1	6%	6%	13%	-10%	4.3%	2%	-1%	/
COc1cc(/C=C2/C(=O)NN(c3ccc(F)cc3)C2=O)cc(Cl)c1O	21%	1%	4%	/	/	?	2%[46.1 µM]	-26%
